Bioassay records as filed in PubChem BioAssay.
Beta cell apopt – blocks beta cell apoptosis | 0.8% of 300,000 active | protection from apoptosis, % (concentration not given with the values) | INS-1E cytokine-induced death, ATP luminescence, 48 h; percent of positive-control rescue, neutral wells zero;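 active = all replicates at 75% or more, or half of them and the mean; inconclusive = half reach 75% but not the mean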;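 also: 0% = cytokine-treated negative control wells and 100% = positive control rescue; higher means more ATP so stronger rescue from cytokine killing; wells of about 40 µL received 100 nL stock; the first replicate is given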
B2AR ag – activates human beta-2 adrenergic receptor causing internalization | Am2.2-beta2AR cells, FAP receptor internalization, flow cytometry; reference of the scale not given here | response, % (no concentration beside the values) | 0.43% of 340,000 active;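 active = response above a set limit, near 3 SD of response in nonfluorescent compounds, cut at about 42% in these data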;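 also: stock transfer was 100 nL into about 11 µL; a reference agonist was the positive control; negative values mostly stem from fluorescent compounds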
Target sequence (P07550 whole entry, looked up): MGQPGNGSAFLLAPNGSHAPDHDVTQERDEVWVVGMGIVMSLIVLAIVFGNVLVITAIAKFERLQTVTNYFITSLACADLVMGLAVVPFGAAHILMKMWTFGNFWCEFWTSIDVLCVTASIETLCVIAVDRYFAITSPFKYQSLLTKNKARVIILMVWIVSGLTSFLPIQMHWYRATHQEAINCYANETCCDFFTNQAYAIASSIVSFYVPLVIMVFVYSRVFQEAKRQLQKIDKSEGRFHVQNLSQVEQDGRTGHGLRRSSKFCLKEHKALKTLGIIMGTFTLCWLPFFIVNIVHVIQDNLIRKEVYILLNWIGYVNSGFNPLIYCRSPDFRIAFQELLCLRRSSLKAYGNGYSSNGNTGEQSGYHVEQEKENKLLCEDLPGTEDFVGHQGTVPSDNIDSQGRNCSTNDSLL
rRNA inh HTS – inhibitors of bacterial rRNA selective over humanized ribosomes. E. coli WT GFP vs humanized-ribosome RFP mutants, fluorescence, 24 h; hits give low values; DMSO median 0, no signal -100. GFP signal change (wild-type ribosome), % (test concentration not listed). 1.6% of 350,000 active. AID 720706;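 active = significant combined selectivity score with lowered wild-type GFP, culture density cut under 30%, mutant RFP and density less affected; inactive = any of these conditions unmet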; also: one replicate is shown; some compounds called inactive have numbers as strong as hits
LANA-H2A inh – blocks KSHV LANA binding to histone H2A/H2B; Q9QR71; cell-free LANA-H2A/H2B peptide, fluorescence polarization; inhibition, % (test concentration not listed); 0.6% of 320,000 active; AID 2629; in the data active = inhibition mostly above about 10%, no sharp cut-off; inactive = mostly below about 6.7%;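 also: stock transfer was 7.5 nL into about 10 µL; 0% = median of vehicle wells and 100% = median of positive control wells; one replicate is shown; the record names a cut of 25% in any replicate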
Calb FLC – C. albicans growth modulation with fluconazole | growth inhibition, % (concentration not given with the values) | 0.57% of 300,000 active | C. albicans CaCi-2 (fluconazole-resistant clinical isolate) + fluconazole, Alamar Blue growth, 48 h | AID 1979;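 active = most replicates above 75%; inconclusive = exactly half above 75%; inactive = most below 75%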;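 also: all wells also contain fluconazole at 8 µg/ml as a sub-toxic cotreatment; 0% = median of DMSO wells and 100% = median of geldanamycin control wells; wells of about 8 µL received 7.5 nL stock; the first replicate is given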
T cruzi inh – blocks replication of Trypanosoma cruzi; T. cruzi beta-gal in NIH3T3, luminescence, 90 h; inhibition, % (concentration not given with the values); 1.4% of 300,000 active; AID 1885;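 active = mean inhibition across valid replicates above about 55%, limit read from the data; inconclusive = mean below that limit but half or more replicates reach it; inactive = mean below it, under half of replicates reach it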;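 also: signal also drops with host cell toxicity which is not excluded here; 0% = plate median of DMSO wells and 100% = zero luminescence signal; higher percent means less beta-gal luminescence so fewer parasites; stock transfer was 50 nL into about 50 µL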
ALR inh – human ALR oxidase inhibition via reduced H2O2; purified ALR, DTT oxidation, H2O2 HRP-luminol luminescence; inhibition, % (no concentration beside the values); 3.8% of 290,000 active; AID 485317;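 active = mean and each replicate at 75% or more; inconclusive = only one of the two met; inactive = neither met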;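 also: stock transfer was 7.5 nL into about 7.5 µL; 0% = neutral wells and 100% = wells with inactivated enzyme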
Target sequence (P55789 whole entry, looked up): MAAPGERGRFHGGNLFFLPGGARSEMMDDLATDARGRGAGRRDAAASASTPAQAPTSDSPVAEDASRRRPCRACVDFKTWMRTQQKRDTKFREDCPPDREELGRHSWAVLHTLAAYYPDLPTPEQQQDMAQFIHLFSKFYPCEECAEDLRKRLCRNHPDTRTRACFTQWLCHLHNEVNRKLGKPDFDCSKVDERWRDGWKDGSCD
Bfl-1 A1 inh – inhibitors of the anti-apoptotic protein A1, read as caspase activation; MEF A1-2A-BIM cells, Caspase-Glo 3/7 luminescence, 3 h; percent of clofoctol response, vehicle zero; caspase activation, % (concentration not given with the values); 0.066% of 330,000 active;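 active = over half of replicate activation scores above 10%, or exactly half above 10 with the replicate mean above 10; inconclusive = replicate mean below 10 yet half the replicates above 10; inactive = over half of replicates below 10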;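 also: wells of about 30 µL received 50 nL stock; many hits fall short of the cut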
rRNA inh HTS OD600 – second read-out of rRNA inh HTS, no call of its own (marks repeat the call); OD600 change, %; measured here: OD600 growth;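 optical density of the mix in the first replicate; 0 = DMSO median and -100 = no signal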
rRNA inh HTS RFP – second read-out of rRNA inh HTS, no call of its own (marks repeat the call); RFP signal change, %; measured here: RFP humanized mutant strains;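 first replicate; 0 = DMSO median and -100 = no signal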
Active calls of the source: *; ? = inconclusive; / = not tested or not shown; & = joins results of further samples. Only part of the results is shown (hit frequency here may not be typical).

SMILES	Beta cell apopt	B2AR ag	rRNA inh HTS	rRNA inh HTS OD600	rRNA inh HTS RFP	LANA-H2A inh	Calb FLC	T cruzi inh	ALR inh	Bfl-1 A1 inh
COc1ccc(/C=C2/C(=O)N(c3c(F)c(F)c(F)c(F)c3F)N=C2C)cc1	-6	9	5	13	-0.2	3.3	-4	-7	90*	0.4
O=S(=O)(Nc1ccc(-n2cnnn2)cc1)c1ccc(F)c(F)c1F	-5	9	2	2	0.3	-9.6	5	-3	-2	-0.1
O=C1C=C(c2ccccc2)CC(c2ccc(F)cc2)C1 (stereo not drawn)	-4	-6	-26	-36	-11	2.7	-5	-1	-5	0.6
CCCCN1CCNC[C@@H]1Cc1ccc(O)cc1	2	-6	5	12	-0.4	-2.3	1	-6	4	0.1
O=C(Cc1ccc(Cl)cc1)NC1CCCN(Cc2ccccc2F)C1 (stereo not drawn)	-2	0	9	-5	6.6	2.1	-2	8	3	0.3
COc1cccc(CNC(=O)c2ccc(NC(=O)C3=CSCCO3)cc2)c1	3	0	-13	-6	4.8	5.3	-7	0	-3	0.2
CCOc1cc(C(=O)NC(C)COC)cc(OCC)c1OCC (stereo not drawn)	4	-4	/	/	/	-3.2	-2	10	1	1.3
Cc1nn(CC(=O)NC(C)c2ccccc2)c(C)c1[N+](=O)[O-] (stereo not drawn)	0	8	7	10	-2.3	1.1	-2	-7	-36	0.2
O=C(O)CCCC(=O)NCc1c(Cl)cccc1Sc1ccc(Cl)cc1	1	-7	/	/	/	-2.2	-2	-9	-4	-0.3
COc1cccc(N2C(=O)[C@H]3C(C(=O)c4cnccn4)=NN[C@H]3C2=O)c1	/	1	12	8	3.9	-7.7	-7	-4	37	?
COc1cccc(NC(=O)CC2(CC(=O)O)CCCC2)c1	3	2	/	/	/	-1.8	-21	-16	-9	0.6
CC1CCN(S(=O)(=O)c2cccc(C(=O)NC3CCCCC3)c2)CC1	4	-3	6	13	-1.5	-10	5	4	/	0.5
CCOC(=O)C1=C(C)NC(=O)NC1c1ccc(N(C)C)cc1 (stereo not drawn)	/	7	15	10	6.3	/	-6	-11	/	/
CCc1cccc(NS(=O)(=O)c2c(C)[nH]c(=O)[nH]c2=O)c1	2	-3	11	7	-8.0	1.7	19	-14	-7	0.2
O=C(NC1CCCCC1)c1ccc(S(=O)(=O)N2CCCC2)cc1	-3	0	/	/	/	0.8	-2	-50	-2	0.5
Cn1ccs/c1=N\S(=O)(=O)c1ccc(C(C)(C)C)cc1	2	-14	/	/	/	1.7	2	12	-3	0.4
CSCCC(NC(=O)c1ccccc1Br)C(=O)NCC(C)(C)N1CCOCC1 (stereo not drawn)	-5	-5	3	-4	0.0	-4.6	0	15	4	0.1
CC1(C)Cc2c(c(-c3ccco3)nc3sc4c(NCC5CCCO5)ncnc4c23)CO1 (stereo not drawn)	-12	83*	/	/	/	-3.2	7	20	14	-0.1
CCNc1nc(NCC)n2c(SC(C(=O)Nc3cc(C)ccc3OC)c3ccccc3)nnc2n1 (stereo not drawn)	5	-12	-5	-17	-4.5	/	23	11	/	-0.3
COc1ccc(C(=O)COC(=O)c2cccnc2Cl)c(OC)c1	/	-3	-15	-15	-3.3	4.0	-8	3	4	-6.4
CCOc1ccc(CCNS(=O)(=O)c2ccc3c(c2)oc(=O)n3C)cc1OCC	-7	9	3	8	-0.5	-5.8	12	8	-24	-1.3
O=C(C[n+]1cc(Br)cc2ccccc21)c1ccc(Br)cc1	/	-8	4	4	3.4	-6.1	-4	5	/	0.0
CC(C)N(CC#CCC(O)(c1ccccc1)c1ccccc1)C(C)C	-2	6	/	/	/	-0.7	-6	-5	-5	0.5
Cc1cccc2[nH]c3c(=O)n(CCN4CCNCC4)cnc3c12	-2	-8	/	/	/	-6.7	2	-5	/	0.4
Cc1ccc(C(=O)N2CCN(c3ncccn3)CC2)cc1	5	9	-2	10	-1.6	-0.2	-10	-9	5	-0.3
O=C(CSc1ccc2ccccc2c1)Nc1ccc(S(=O)(=O)Nc2nccs2)cc1	-1	9	/	/	/	-0.3	2	-29	/	0.6
COc1cccc2c1OCC/C2=N\NC(=O)COc1ccc(C)cc1	-4	1	10	9	-1.6	6.6	-13	3	-23	0.7
COCCNC(=O)COc1ccc(Oc2ccccc2)cc1	-3	-8	/	/	/	-1.9	7	4	15	0.9
CCN1CCCC(NC(=O)c2cc([N+](=O)[O-])ccc2OC)C1 (stereo not drawn)	-8	-8	/	/	/	-5.4	3	-10	0	0.2
Cn1c(=O)c2c(ncn2CC(=O)Nc2ccccc2Sc2ccccc2)n(C)c1=O	-2	3	/	/	/	4.1	-3	-13	-3	0.1
Cc1c(NC(=O)C2CCCCC2)cc(C(=O)N2CCOCC2)cc1[N+](=O)[O-]	-2	3	1	3	-1.6	-1.8	2	5	-18	-0.6
Cc1ccc(-c2[nH]ncc2/C=N/n2c(COc3ccccc3C)nc3ccccc3c2=O)cc1	93*	9	/	/	/	-2.2	-20	20	-1	1.8
Cc1[nH]nc(SCC(=O)NC(C)c2ccccc2)c1[N+](=O)[O-] (stereo not drawn)	-3	5	/	/	/	0.9	9	-2	-7	0.4
CC1(C(O)(C#CC[N+]2(C)CCCCC2)c2ccccc2)CCCC1 (stereo not drawn)	-6	1	-1	-4	1.8	3.6	-11	4	-21	0.2
Cc1ccc(C(c2nnnn2CCc2ccccc2)N2CCC(C)CC2)cc1 (stereo not drawn)	12	-8	/	/	/	0.0	4	17	1	-0.7
CC(C)=CC(=O)N1CC[C@@H](N2CCN(c3ccccc3F)CC2)[C@H](O)C1	/	-3	5	10	-1.0	-0.1	0	-10	4	-0.1
OCc1ccccc1CNCc1ccccc1	-3	1	10	9	-2.2	2.5	-8	-23	6	-0.1
COc1ccc(C(C)=O)cc1COC(=O)Cc1n[nH]c(=O)c2ccccc12	5	-8	/	/	/	0.3	-7	-5	2	0.2
CC(=O)c1cc(-c2ccccc2)n(CC(=O)N2CCCC2)c1C	-1	11	14	7	0.4	-2.4	-4	-9	-6	0.0
CC(=O)c1c(C)oc2ccc(N(C(C)=O)S(=O)(=O)c3ccc(Cl)c([N+](=O)[O-])c3)cc12	-9	31	/	/	/	8.5	-3	-3	64	-1.3
Cc1ccc(C)c(-n2nnnc2Sc2nc([N+](=O)[O-])nn2C)c1	-6	2	/	/	/	/	-2	53	/	0.1
COc1cc(/C=N/NC(=O)c2cc(-c3cccc(Br)c3)nc3ccccc23)cc(OC)c1O	14	5	1	14	0.0	-1.9	-11	12	-1	-0.7
COc1ccc(C(=O)NNC(=O)CCC(=O)Nc2cc(C)on2)cc1	-5	-4	/	/	/	-2.4	17	-6	/	-0.2
O=C(N[C@@H](Cc1ccccc1)c1nc2ccccc2[nH]1)c1cc([N+](=O)[O-])ccc1Cl	1	-2	12	-2	0.0	2.6	-7	2	-11	0.0
CC(/C=N/NC(=O)c1ccccc1C)=C\c1ccccc1	/	4	13	-6	-0.8	-3.4	-4	-5	-8	-5.1
Clc1ccc(CN2CC[C@H]3C=CCc4cccc(c43)C2)cc1	5	6	-11	1	19	-0.3	/	/	-23	0.7
CCC(C)NS(=O)(=O)c1ccc(NC(=O)c2ccc([N+](=O)[O-])cc2Cl)cc1 (stereo not drawn)	-1	-9	-10	-7	-3.2	-1.6	11	17	-10	0.7
COc1cccc(CN(C)C(=O)C(Cc2ccccc2)NC(=O)c2ccccc2)c1OC (stereo not drawn)	-2	10	-2	17	-0.5	1.2	/	-6	-15	0.1
CC1CN(C2CCN(C(=O)COc3ccc(Cl)cc3)CC2)CC(C)O1 (stereo not drawn)	-9	-2	/	/	/	2.6	-2	17	/	-0.8
COc1ccc(S(=O)(=O)N(C)C[C@H]2Oc3c(NC(=O)c4ccncc4)cccc3C(=O)N([C@H](C)CO)C[C@@H]2C)cc1	2	-5	3&0	-1&9	0.2&0.3	5.1	/	/	0	0.7
O=C(OCC(=O)N1CCN(c2ccccc2)CC1)c1ccc2ncsc2c1	-6	-12	/	/	/	-1.8	/	/	41	-0.3
CCCCCc1ccc(-c2ccc(=O)[nH]n2)cc1	3	0	/	/	/	2.6	-2	-7	-1	-0.9
[O-][n+]1c2c(c3c4non(O)c4ccc31)CCCC2	/	4	-61	-80	-28	1.7	4	-19	94*	0.1
Cc1ccn(CCC(=O)Nc2ccc(-c3ccno3)cc2)n1	-3	-5	-2	-3	1.1	0.2	-22	6	-1	0.2
O=[N+]([O-])c1c(Nc2ccc(Br)cc2)ccc2nonc12	-2	-2	4	-2	6.8	5.0	4	-10	/	0.0
O=C(COC(=O)c1ccccc1OCc1ccc(Cl)cc1)NC1CC1	-5	10	/	/	/	1.4	2	14	-14	1.0
N#CCc1ccc(NC(=O)Nc2cccc3ccccc23)cc1	-2	1	/	/	/	-3.6	-9	-1	-16	0.8
Cc1cccc(N(CC(=O)NCCC2=CCCCC2)S(C)(=O)=O)c1C	-7	-9	/	/	/	-0.6	/	/	-3	-0.2
Fc1cccc(Cl)c1Cn1nnc2c(N3CCC4(CC3)OCCO4)ncnc21	3	22	/	/	/	-4.1	7	15	-1	0.2
Cc1cc(C)c[n+](-c2[nH]c(=O)sc2/C=N/NC([S-])=Nc2ccccc2)c1	-8	-16	9	6	-3.8	/	7	-46	/	0.2

The results go on.
SMILES	Beta cell apopt	B2AR ag	rRNA inh HTS	rRNA inh HTS OD600	rRNA inh HTS RFP	LANA-H2A inh	Calb FLC	T cruzi inh	ALR inh	Bfl-1 A1 inh
Cc1ccc(NC(=O)Cn2cccc2C2=NC(c3ccccc3)CO2)c(C)c1 (stereo not drawn)	1	-9	/	/	/	2.2	3	21	0	?
CC(C)c1ccc(CNc2ccc([N+](=O)[O-])cn2)cc1	0	14	-18	-2	9.2	-0.5	-28	8	/	-0.3
CN(C(=O)Cn1cnc2sccc2c1=O)C1CCCCC1	-5	-4	14	10	2.8	3.4	/	/	-3	0.2
c1cc(-c2cc3cc4c(cc3cn2)OCO4)cs1	0	-3	6	13	7.7	2.9	/	/	-3	-4.9
Nc1ccc(C(=O)Nc2nc3ccccc3s2)cc1	9	2	5	11	1.6	-2.2	-14	-4	94*	-5.6
Cc1ccccc1OCc1nc(-c2ccc(NC(=O)c3ccco3)cc2)no1	7	3	/	/	/	-4.7	9	/	64	-2.5
O=C(CNC1CCCCCC1)Nc1ccc(S(=O)(=O)NC2CC2)cc1	/	3	/	/	/	-2.6	1	-8	-8	0.4
CCOc1ccc(C(=O)Nc2nnc(S(=O)(=O)N3CCCCC3)s2)cc1	0	15	1	3	0.5	-1.2	5	7	-2	-0.5
Cc1ccc(-n2c(C)c([N+](=O)[O-])c3ccc(O)c(CN(C)C)c32)cc1	-6	4	/	/	/	3.3	?	0	/	0.9
Cc1ccc(S(=O)(=O)N(C)C)cc1NC(=O)C(C)N(C)CCOc1ccc(Cl)cc1 (stereo not drawn)	-6	1	-9	-19	1.4	-0.3	-7	40	-9	0.0
COc1ccc(-c2oc3ccccc3c(=O)c2OCC(=O)O)cc1	2	8	-12	-21	-3.6	0.3	2	-3	6	0.5
O=C(Nc1ccccn1)c1ccc(Cl)c(S(=O)(=O)N2CCCC2)c1	-5	-8	-6	-20	-1.4	-1.5	-3	3	-2	-5.1
